PABP polyA inh: PABP-poly(A) binding inhibition; PABP-poly(A) RNA binding, fluorescence polarization; inhibition, % at 35 µM; 1% of 290,000 active;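 active = 50% or more with normal probe brightness, or confirmed in later tests; inconclusive = above 50% with abnormal brightness, or retests that disagree; inactive = below 50% or failed in later tests; about a fifth of its hits are not listed in these tables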;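 also: calls also rest on retests at 20 µM and on dose response follow-up; controls were probe without protein and protein plus probe with vehicle; some compounds called inactive have numbers as strong as hits; many hits fall short of the cut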
Target sequence (P11940 whole entry, looked up): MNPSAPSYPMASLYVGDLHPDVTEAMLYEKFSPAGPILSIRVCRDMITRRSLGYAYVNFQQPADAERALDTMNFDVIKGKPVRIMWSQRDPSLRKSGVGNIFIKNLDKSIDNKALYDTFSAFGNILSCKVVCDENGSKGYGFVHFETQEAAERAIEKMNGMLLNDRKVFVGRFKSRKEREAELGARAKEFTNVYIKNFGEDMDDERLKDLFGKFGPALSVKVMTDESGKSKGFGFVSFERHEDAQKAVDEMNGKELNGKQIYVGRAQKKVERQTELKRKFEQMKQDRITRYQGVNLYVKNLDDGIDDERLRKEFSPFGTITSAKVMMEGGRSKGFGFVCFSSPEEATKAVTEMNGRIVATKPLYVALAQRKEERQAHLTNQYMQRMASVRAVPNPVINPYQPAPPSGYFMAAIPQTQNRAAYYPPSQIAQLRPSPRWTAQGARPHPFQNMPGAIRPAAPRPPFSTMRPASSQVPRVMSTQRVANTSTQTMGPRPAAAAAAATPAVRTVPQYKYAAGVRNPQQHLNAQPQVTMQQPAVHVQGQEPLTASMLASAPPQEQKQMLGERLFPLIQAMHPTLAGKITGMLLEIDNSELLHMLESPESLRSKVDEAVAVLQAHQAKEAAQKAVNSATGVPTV
UUG fidelity: yeast start codon fidelity modulation; S. cerevisiae UUG-firefly luciferase reporter, luminescence/redox ratio; activity score, % at 18.7 µM; 0.13% of 350,000 active;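 active = replicate mean at a twofold rise or more, about +100% in these data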;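 also: firefly luciferase made from a UUG start codon reports start codon fidelity; reporter light over untreated wells divided by growth signal over untreated wells; some hits fall short of that in this replicate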
eIF4H inh: inhibitors of RNA binding by human eIF4H; eIF4H fluorescence polarization binding assay; inhibition, % at 35 µM; 0.94% of 290,000 active;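 active = 50% or more with normal probe brightness, or confirmed in later tests; inconclusive = above 50% with abnormal brightness, or retests that disagree; inactive = below 50% or failed in later tests; about a fifth of its hits are not listed in these tables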;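 also: calls also rest on retests at 20 µM and on dose response follow-up; 0% = protein and probe with vehicle and 100% = probe without protein; strong numbers were not always called active; many hits fall short of the cut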
Rce1 inh: inhibitors of yeast Ras-converting enzyme. Q03530. 0.27% of 290,000 active. calls only. yeast membranes, quenched prenylated peptide cleavage fluorescence;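 active = fall in fluorescence gain of 50% or more versus controls, with final raw signal at or below 3038400; inconclusive = same 50% fall but final raw signal above 3038400; inactive = fall in fluorescence gain under 50%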;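 also: plate controls were neutral control wells for no effect and wells lacking membranes for full effect; tested at 10 µM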
Target sequence (Q03530 whole entry, looked up): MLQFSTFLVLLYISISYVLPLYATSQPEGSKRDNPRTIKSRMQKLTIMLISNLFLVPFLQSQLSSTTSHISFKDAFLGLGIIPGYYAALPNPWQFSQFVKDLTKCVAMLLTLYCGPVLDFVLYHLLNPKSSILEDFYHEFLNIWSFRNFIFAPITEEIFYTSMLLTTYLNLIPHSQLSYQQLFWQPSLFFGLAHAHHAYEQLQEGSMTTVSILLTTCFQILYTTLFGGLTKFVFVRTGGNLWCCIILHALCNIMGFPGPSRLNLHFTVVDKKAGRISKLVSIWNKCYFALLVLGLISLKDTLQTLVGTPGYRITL
HIV Env fusion: HIV envelope-mediated fusion inhibition; HeLa-JRFL Env/CEM21 cell fusion, luciferase; inhibition, % at 12.3 µM; 1.1% of 360,000 active; AID 651610;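 active = mean replicate inhibition score of at least 50 and every replicate individually at or above 50; inconclusive = only one of the two criteria met; inactive = mean below 50 and not all replicates reaching 50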;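 also: 0% = plate neutral controls and 100% = maraviroc near 300 nM; one replicate is shown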
MT1-MMP act inh: MT1-MMP (human) activation inhibition; P50281; GFP/RFP ratio change, % at 20 µM; AID 651647; 0.061% of 360,000 active; HT1080 RFP-PRO-GFP cells, GFP/RFP ratio fluorescence, overnight; percent of plate control window, DMSO zero;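 active = GFP/RFP ratio change of at least 30% with cell ATP level not reduced by more than half and red fluorescence within 50% of control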; also: strong numbers were not always called active
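Material: RFP-PRO-GFP reporter HT1080 cells. Dosing: single-point 20 µM compound, 1% DMSO. Controls: DMSO and RFP-L50D-GFP cell wells. Timing: cells overnight before dosing, compound overnight, 37 °C, 5% CO2. Measure: GFP/RFP fluorescence ratio.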
CSC inhib: blocks cancer stem cells | cancer stem cell-like cells viability, luminescence | inhibition, % at 7.5 µM | 1.1% of 300,000 active;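 active = mean at 75% or more and at least half the replicates too; inconclusive = mean and replicates disagree; tested in HMLE shEcad cells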;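 also: 0% = median of negative and 100% = median of positive control wells; the first replicate is given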
MT1-MMP act inh RFP: further read-out of MT1-MMP act inh, marked with its call; RFP signal change, %; measured here: RFP expression control read;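 0 = vehicle wells; hits needed this value within 50% of zero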
Active calls of the source: *; i = inactive; ? = inconclusive; nt = no result given. The list is partial, so the mix of outcomes need not match the whole.

SMILES	PABP polyA inh	UUG fidelity	eIF4H inh	Rce1 inh	HIV Env fusion	MT1-MMP act inh	MT1-MMP act inh RFP	CSC inhib
C=CCN1CN(S(=O)(=O)c2cccc(Cl)c2)c2nc3ccccc3nc21	3	-9	-8	i	16	-3	0	3
CC1(C)Cc2c(sc(NC(=O)C(=O)N3CCOCC3)c2C(N)=O)CO1	-10	nt	3	i	-3	2	5	19
O=C(NCCn1cccn1)c1ccc(OC2CCN(CCc3ccccc3)CC2)cc1	2	4	0	i	5	1	0	3
Cc1ccc2c(c1)c1c(n2C)C(=O)CCC1	-4	-7	-2	i	-97	-1	6	11
CC(C)(C)C#CCn1c(/C=[N+](\[O-])C2CCCCC2)nc2ccccc21	-1	-16	4	i	nt	2	-12	14
CC(C)c1ccccc1NC(=O)CSc1n[nH]c(=O)n1C1CC1	nt	-12	nt	nt	nt	5	-2	12
c1ccc(C(c2ccccc2)c2nc(-c3cccnc3)no2)cc1	4	-12	-4	i	4	-5	-5	-4
COc1ccc(S(=O)(=O)Nc2cccc3ccc(O)cc23)cc1	nt	-6	nt	i	20	-1	-15	60
CS(=O)(=O)c1cnc(-c2ccccc2)nc1-c1ccc(Cl)c(Cl)c1	4	nt	5	i	-23	2	6	8
COc1cnc(-c2ccccc2)nc1Oc1ccccc1C	-8	-2	-2	i	nt	-3	-1	3
CC1=CC(=O)C(C(C)=Nc2ccccc2Cl)C(=O)O1 (stereo not drawn)	7	-6	-4	i	5	3	4	3
CC(C)CN(C(=O)c1nn(C)c(=O)c2ccccc12)c1nc2ccccc2s1	-3	nt	-2	i	nt	2	1	-4
O=C(Nc1cccc(O)c1)c1cc2nc(-c3ccccc3)cc(-c3ccccc3)n2n1	2	nt	-2	i	10	4	0	-3
COc1cccc(CNc2cccc(C(F)(F)F)c2)c1O	22	-24	-10	i	16	-2	-7	-5
CCc1ccc(CN2C(=O)c3ccccc3C2C(=O)NC(C)CC)cc1 (stereo not drawn)	4	0	-8	i	-2	-7	-6	-12
Cc1ccc(S(=O)(=O)C2(C(=O)Nc3ccc4c(c3)OCO4)CC2)cc1	-8	-2	-3	i	18	3	7	-8
COc1ccc(OC)c(NC(=O)C2C3CCC(O3)C2C(=O)O)c1 (stereo not drawn)	-2	nt	0	i	nt	nt	nt	-3
COCCNC(=S)NC12CC3CC(CC(C3)C1)C2	9	-21	2	i	0	3	3	-12
O=C(NC1CCCCC1)C(c1cccnc1)N(C(=O)CCl)c1ccc(F)cc1 (stereo not drawn)	7	9	37	i	nt	0	4	99*
O=C(Oc1ccc(/C=N/O)cc1)c1ccccc1	-4	-14	-10	i	-5	-4	2	1
COc1cc(OC)cc(C(=O)NNC(=O)CCNC(=O)c2ccc(Br)cc2)c1	nt	-5	nt	nt	1	0	-2	5
O=C(Nc1nncs1)c1cc(S(=O)(=O)N2CCCCC2)ccc1Cl	6	-7	-14	i	9	4	4	-1
CCn1c(-c2ccco2)n[nH]c1=S	-3	-25	-3	i	nt	2	0	-8
CC(C)N(Cc1nc(COc2ccccc2)no1)Cc1nccn1C	-4	nt	-3	i	-6	-6	2	-9
CN(C)CCCNC(=S)N(Cc1cccs1)Cc1cc2cc3c(cc2[nH]c1=O)OCCO3	-20	nt	-22	i	-17	-15	-8	9
SMILES	PABP polyA inh	UUG fidelity	eIF4H inh	Rce1 inh	HIV Env fusion	MT1-MMP act inh	MT1-MMP act inh RFP	CSC inhib
O=C(Nc1ccccc1-c1nc2ccccc2s1)c1ccco1	-2	-6	1	i	nt	-4	0	nt
C=CCn1c(SCC(=O)Nc2c(C)nn(Cc3ccccc3)c2C)nnc1C(O)c1ccccc1 (stereo not drawn)	-11	-24	-5	i	-8	-4	4	-11
COc1ccc(Cl)cc1NC(=O)CCc1nc(-c2ccccc2F)no1	6	3	-1	i	20	1	2	-9
COc1ccc(Cc2nnc(NC(C)=O)s2)cc1	1	nt	0	i	-11	-1	-5	0
CCCCOc1ccc(C(=O)Nc2ccc(SC(F)F)cc2)cc1OC	-4	nt	1	i	3	-5	-10	1
CC(C(=O)c1ccc(-c2ccccc2)cc1)[n+]1cccc(NC(=O)c2ccccc2)c1 (stereo not drawn)	-23	8	2	i	-4	-1	-3	17
CCOC(=O)C(CSCC(=O)c1ccc(Cl)cc1)NC(=O)OC(C)(C)C (stereo not drawn)	-1	nt	-4	i	nt	10	0	-17
COc1ccccc1CNS(=O)(=O)c1c(C)[nH]c(C)c1C(=O)N1CCCC1	13	-11	-10	i	-3	0	2	-8
Cc1cccnc1NC(=O)C1CCN(S(=O)(=O)c2cccs2)CC1	-7	-5	-8	i	nt	-3	-2	3
N/C(=N\OC(=O)c1ccc(Cl)cc1)c1ccc(Cl)cc1	-17	-8	2	i	nt	8	0	-2
COc1ccc(CNC(=O)CCc2ccc(S(=O)(=O)N3CCCCCC3)cc2)cc1OC	nt	-5	nt	nt	9	0	-7	nt
CCOC(=O)c1cc(C)n(S(=O)(=O)c2ccc(C)cc2)c1C	-5	-4	-7	i	nt	3	-5	-13
O=[N+]([O-])c1ccc(OCCOc2ccccc2/C=N/n2cnnc2)cc1	-4	nt	-10	i	-8	3	1	0
CC(C)Cn1c(SCC(N)=O)nnc1-c1cccc(S(=O)(=O)N2CCOCC2)c1	nt	-18	nt	nt	9	3	4	-9
O=C(CNC(=S)N(CCCN1CCOCC1)Cc1cccs1)NC1CCCCC1	1	nt	3	i	1	3	1	-12
CCc1nc2ccccc2c2nc3ccccc3n12	10	-11	-3	i	nt	2	0	-13
Cn1c(-c2cc3c(C(F)(F)F)nn(C)c3s2)n[nH]c1=S	0	-17	-2	i	nt	4	5	-6
Clc1cccc(-c2nc(NCC3CCCO3)c3ccccc3n2)c1 (stereo not drawn)	-7	nt	-14	i	4	0	-5	18
C#CCOCCOCCOCCNc1nc(N2CCN(C(=O)[C@H]([C@@H](C)CC)n3cc(CCCN=C(N)N)nn3)CC2)nc(N2CCN(C(=O)[C@H](CCCCN)n3cc(CC(C)O)nn3)CC2)n1 (stereo partly drawn)	nt	-5	nt	nt	-11	4	1	-5
CCCCOC(=O)CCc1n[nH]c(=O)[nH]c1=O	5	-12	4	i	nt	-8	2	-6
OC(CSc1ccc(F)cc1)CN1CCN(c2ccccc2)CC1 (stereo not drawn)	7	nt	-1	i	-1	0	-1	13
Cc1ccc(S(=O)(=O)N2CCN(S(=O)(=O)N3CCOCC3)CC2)c(C)c1	15	-6	-5	i	nt	8	0	-7
COc1ccc(S(=O)(=O)N2CCCC2C(=O)NCc2cccs2)cc1 (stereo not drawn)	4	-1	6	i	-28	1	10	-14
Cc1cc(OCC(=O)N2CCN(c3ccccn3)CC2)c(C)cc1Br	-17	-18	-3	i	-5	3	4	0
O=C(CCc1ccccc1)OCC(=O)c1cccc([N+](=O)[O-])c1	-4	nt	-7	i	-3	-3	4	-1

Exported with values under each structure: 3 of the compounds above
Order of values – PABP polyA inh, UUG fidelity, eIF4H inh, Rce1 inh, HIV Env fusion, MT1-MMP act inh, MT1-MMP act inh RFP, CSC inhib
- COc1cccc(CNc2cccc(C(F)(F)F)c2)c1O
→ 22, -24, -10, i, 16, -2, -7, -5
- CC1=CC(=O)C(C(C)=Nc2ccccc2Cl)C(=O)O1 (stereo not drawn)
→ 7, -6, -4, i, 5, 3, 4, 3
- Clc1cccc(-c2nc(NCC3CCCO3)c3ccccc3n2)c1 (stereo not drawn)
→ -7, nt, -14, i, 4, 0, -5, 18

Individual results from above.
In MT1-MMP act inh RFP, `COc1ccccc1CNS(=O)(=O)c1c(C)[nH]c(C)c1C(=O)N1CCCC1` shows 2
In CSC inhib, `OC(CSc1ccc(F)cc1)CN1CCN(c2ccccc2)CC1` (stereo not drawn) shows 13
In CSC inhib, `COc1ccc(S(=O)(=O)N2CCCC2C(=O)NCc2cccs2)cc1` (stereo not drawn) shows -14
In eIF4H inh, `Clc1cccc(-c2nc(NCC3CCCO3)c3ccccc3n2)c1` (stereo not drawn) shows -14

(further entries)
SMILES	PABP polyA inh	UUG fidelity	eIF4H inh	Rce1 inh	HIV Env fusion	MT1-MMP act inh	MT1-MMP act inh RFP	CSC inhib
CCn1c(=O)n(CC)c2cc(N3CCCC3)c(NC(=O)c3ccc(OC)c(Br)c3)cc21	1	5	-2	i	12	5	3	22
O=C(O)CCc1nnc(SCC(=O)Nc2cccc(C(F)(F)F)c2)[nH]c1=O	2	nt	-6	nt	-4	2	5	-3
CCOCCCNCc1ccc(OCc2ccccc2Cl)cc1	8	nt	2	i	-2	1	-1	33
CCO[C@@H]1OC(C(=O)N2CCOCC2)=C[C@H](c2coc3ccccc3c2=O)[C@H]1CCCO	5	-12	6	i	1	-2	3	3
Cc1ccccc1N1CCN(S(=O)(=O)c2nnc(NC(=O)c3ccc(F)cc3)s2)CC1	-7	-2	-19	i	2	6	-14	15
O=C(CCCn1c(=S)[nH]c2ccc(Br)cc2c1=O)N1CCN(c2ccccn2)CC1	-10	-9	4	i	-31	-7	-6	-9
Fc1cccc(Cc2noc(CN3CCN(c4cnccn4)CC3)n2)c1	-1	1	9	i	-4	4	-1	1
O=c1cc(N2CCc3ccccc3C2)[nH]c(=O)n1-c1ccc(Cl)cc1	-7	-15	-5	i	nt	-2	2	nt
CCOc1ccc(S(=O)(=O)N(C)c2ccc(OCC(=O)N3c4ccc(C)cc4C4CN(C)CCC43)cc2)cc1 (stereo not drawn)	0	3	-5	i	-27	1	-2	1
O=C1CC(N2CCN(c3ccc(S(=O)(=O)N4CCOCC4)cc3)CC2)C(=O)N1Cc1ccccc1 (stereo not drawn)	8	-6	1	i	nt	3	-3	-7
Cc1ccc(NC(=S)Nc2ccccn2)cc1C	-2	-24	1	i	-7	-1	-1	6
COc1ccc(C)cc1NC(=O)C1CCN(S(=O)(=O)c2c(C)noc2C)CC1	-5	nt	-3	i	5	-2	-1	-19
COc1cccc(/C=N/n2c(N)c(S(=O)(=O)c3cccs3)c3nc4ccccc4nc32)c1OC	16	-19	4	i	-6	2	3	5
O=C(Cc1ccc(F)cc1)OCn1nnc2ccccc2c1=O	8	-7	-2	i	-5	-5	2	-10
COc1cc(CC(=O)OC2CCOC2=O)cc(OC)c1OC (stereo not drawn)	-11	-9	-14	i	-7	0	2	3
COc1ccccc1NC(=O)c1cccc(NC(=O)c2ccco2)c1	-9	-1	-11	i	nt	5	-2	-2
CCOC(=O)C1=C2SCC(=O)N2C(N)=C(C#N)C1	9	-16	13	i	?	-7	4	-9

As a short view, 4 of the compounds above:
SMILES	PABP polyA inh	UUG fidelity	eIF4H inh	Rce1 inh	HIV Env fusion	MT1-MMP act inh	MT1-MMP act inh RFP	CSC inhib
CCn1c(=O)n(CC)c2cc(N3CCCC3)c(NC(=O)c3ccc(OC)c(Br)c3)cc21	1	5	-2	i	12	5	3	22
O=C(O)CCc1nnc(SCC(=O)Nc2cccc(C(F)(F)F)c2)[nH]c1=O	2	nt	-6	nt	-4	2	5	-3
CCOCCCNCc1ccc(OCc2ccccc2Cl)cc1	8	nt	2	i	-2	1	-1	33
CCO[C@@H]1OC(C(=O)N2CCOCC2)=C[C@H](c2coc3ccccc3c2=O)[C@H]1CCCO	5	-12	6	i	1	-2	3	3

3 compounds drawn at random from the list so far, as already listed:
SMILES	PABP polyA inh	UUG fidelity	eIF4H inh	Rce1 inh	HIV Env fusion	MT1-MMP act inh	MT1-MMP act inh RFP	CSC inhib
Fc1cccc(Cc2noc(CN3CCN(c4cnccn4)CC3)n2)c1	-1	1	9	i	-4	4	-1	1
O=C(CCCn1c(=S)[nH]c2ccc(Br)cc2c1=O)N1CCN(c2ccccn2)CC1	-10	-9	4	i	-31	-7	-6	-9
O=c1cc(N2CCc3ccccc3C2)[nH]c(=O)n1-c1ccc(Cl)cc1	-7	-15	-5	i	nt	-2	2	nt

Screens deposited in PubChem by several laboratories.
